Screening data (PubChem)
VACV Venus inh: qHTS for Stage-Specific Inhibitors of Vaccinia Orthopoxvirus: Venus Reporter Primary qHTS. Potency, µM (highest dose often 36.5 µM), for the others: at the top dose activity change, negative = inhibition, usual class: inhibitors. 330,000 compounds, 0.46% hits. Vaccinia virus Venus reporter expression, fluorescence; active means well fitted inhibition curve with a large enough effect; inconclusive means small, poorly fitted or top-dose-only effect; inactive means no such curve, though single readings can be large or run the other way; tested in A549 cells; note: nearly all actives have a fitted effect of over 30% in size; inactives centre near -10
VACV mCherry inh: qHTS for Stage-Specific Inhibitors of Vaccinia Orthopoxvirus: mCherry Reporter Primary qHTS. Potency, µM (top dose mostly 36.5 µM), inactives show at the top dose activity change, negative = inhibition, actives largely listed as inhibitors. Vaccinia virus mCherry reporter infection, fluorescence; about a quarter of the inactives have no number. 310,000 compounds, 0.63% hits; active = well fitted inhibition curve with a large enough effect; inconclusive = small, poorly fitted or top-dose-only effect; inactive = no such curve, though single readings can be large or run the other way; tested in A549 cells; note: nearly all actives have a fitted effect of over 35% in size; inactives centre near -10
Numbers without * were called inactive; i = inactive; ? = inconclusive; · = no result given; & = joins results of further samples; [ ] = another dose, or the depositor's remark. % is set by controls: 0 for no effect and ±100 for the full control effect; potency is the fitted concentration of half-maximal effect. An unsorted share of the library. About 0.87% of those tested had a hit in this group.

The first three entries as a preview:
| Compound | VACV Venus inh | VACV mCherry inh |
| --- | --- | --- |
| COc1ccccc1C(=O)NC(=O)COc1ccc([N+](=O)[O-])cc1 | -12% | i |
| CCOc1cccc(CC(=O)NCc2ccc3c(c2)CCN3C(C)=O)c1OCC | -10% | -16% |
| O=C(CCn1cnc2ccccc21)N/N=C/c1ccc(O)cc1 | -12% | i |

The whole of this part (from the top)
| Compound | VACV Venus inh | VACV mCherry inh |
| --- | --- | --- |
| COc1ccccc1C(=O)NC(=O)COc1ccc([N+](=O)[O-])cc1 | -12% | i |
| CCOc1cccc(CC(=O)NCc2ccc3c(c2)CCN3C(C)=O)c1OCC | -10% | -16% |
| O=C(CCn1cnc2ccccc21)N/N=C/c1ccc(O)cc1 | -12% | i |
| COc1ccc(Cl)cc1NC(=O)CN1CCCC1 | -15% | 2% |
| Cc1cc(C)n2nc(C(=O)N/N=C/c3ccccc3Cl)nc2n1 | -17% | -9% |
| COc1cccc(C(C(=O)NC2CCCC2)N(Cc2cccnc2)C(=O)Cc2cccs2)c1 (stereo not drawn) | -1% | -6% |
| COc1ccc(C2=NN(C(=O)c3cccs3)C(c3ccccc3O)C2)cc1 (stereo not drawn) | ? | ? |
| COc1ccc(OC)c(NC(=O)CSc2ccc(-c3cccs3)nn2)c1 | -11% | -20% |
| C[C@H](CO)N1C[C@H](C)[C@@H](CN(C)S(=O)(=O)c2ccc(-c3ccccc3)cc2)OCc2cn(nn2)CCCC1=O | 4% | -19% |
| CCc1ccc2[nH]c3nc(N/N=C/c4ccc(O)cc4O)nnc3c2c1 | -25% | 1.8µM* |
| CCc1ccc(C2CC(c3ccc(C)cc3)n3nc(N)nc3N2)cc1 (stereo not drawn) | -4% | 2% |
| CCOC(=O)CC1=NS(=O)(=O)c2ccccc2N1 | ? | -6% |
| COc1ccc(-c2noc(CSc3nnc(-c4ccncc4)n3-c3ccc(C)c(C)c3)n2)cc1 | -6% | -1% |
| Cc1ccc(SCCN2CCC(O)CCC2=O)cc1 (stereo not drawn) | -16%&-11% | -1% |
| CC(Nc1ncnc2ccccc12)c1ccccc1 (stereo not drawn) | -24% | i |
| CCCN1Cc2cccc(C(=O)Nc3cc(C)cc(C)c3)c2C1=O | -7% | -14% |
| COc1cc(CC(=O)Nc2ccccc2N2CCCCC2)cc(OC)c1OC | -10% | -2% |
| COc1ccc(C(C[N+](=O)[O-])n2nc(C)cc2C)cc1 (stereo not drawn) | -2% | -13% |
| Cn1cccc1/C=N/NC(=O)c1cc(-c2cccs2)nc2ccccc12 | -29% | ? |
| CNC(=O)c1cc2c(-c3ccccc3)nn(C)c2s1 | -30% | -3% |
| COC(=O)c1cc(NC(=O)c2sc3ccccc3c2Cl)cc(C(=O)OC)c1 | 6% | -2% |
| CSC(=S)NN=C(C)c1cccc(C)n1 | ? | ? |
| CCCOC(=O)c1ccc(NC(=O)Cc2csc(C)n2)cc1 | -7% | 0% |
| Cc1ccccc1NC(=S)NC(NC(=O)COc1ccccc1)C(Cl)(Cl)Cl (stereo not drawn) | -25% | ? |
| CCOC(=O)N1CCN(C(=O)/C=C/c2ccc(C(C)(C)C)cc2)CC1 | -24% | -6% |
| COc1ccc(N2CCN(Cc3cc(OC)c(O)c([N+](=O)[O-])c3)CC2)cc1 | -9% | -7% |
| CCCCN1CC(=O)N2[C@H]3c4ccc(OC)cc4OC[C@@H]3[C@H](C(=O)OCC)[C@]2(C)C1=O | -7% | -11% |
| Cc1ccc(S(=O)(=O)c2c(COC(=O)c3cccc(Cl)c3)c(-c3ccccc3)nn2C)cc1 | -23% | -23% |
| CCN1C(=O)[C@H]2[C@@H](c3ccc(Cl)cc3)N3C(=O)CN(Cc4ccccc4)C(=O)[C@@]3(C)[C@H]2C1=O | -9% | -2% |
| CCOC(=O)c1nc(Nc2ccc(N3CCOCC3)cc2)c2ccccc2n1 | -13% | -18% |
| CCn1cc(C(=O)N2CCN(c3ccc(OC)cc3)CC2)c(=O)c2cc(S(=O)(=O)N3CCOCC3)ccc21 | -24%&-13% | -25% |
| COc1ccccc1NC(=O)C(C)OC(=O)CCSc1ccc(F)cc1 (stereo not drawn) | -11% | i |
| O=C(c1cc(Cl)cc(Cl)c1)N1CCC2CC1c1cc(-c3ccc4c(c3)OCO4)ccc12 (stereo not drawn) | 0% | -24% |
| OCCCNc1ncnc2c1ncn2[C@H]1CN(Cc2ccncc2)C[C@@H](CO)O1 | 9% | 24% |
| CCCCN(C)CCNC(=O)C1CCCN(S(=O)(=O)c2cccc3nsnc23)C1 (stereo not drawn) | -6% | -15% |
| COc1ccc(N(CC(=O)NCc2ccccc2OC)S(=O)(=O)c2ccccc2[N+](=O)[O-])c(OC)c1 | -13% | i |
| Nc1nc(=O)n(C2CCCCO2)cc1Br (stereo not drawn) | -3% | -9% |
| NC(=O)c1ccc(NC(=O)COC(=O)c2ccc([N+](=O)[O-])cc2)cc1 | -13%[7.34 µM] | -11%[7.34 µM] |
| CCCCCNc1ncnc2c(C)[nH]nc12 | -11% | i |
| COc1ccccc1Nc1nc(C)c(C(=O)Nc2ccccc2)s1 | -24% | ? |
| CCn1c2ccccc2c2cc(/C=N/NC(=O)c3ccccc3C)ccc21 | ? | ? |
| CC1=CC(=O)C2(C)C(C)=C(C)C12C (stereo not drawn) | -8% | i |
| CCOC(=O)C1CCCN(CCC(=O)Nc2cc(OC)ccc2OC)C1 (stereo not drawn) | 1% | i |
| O=c1[nH]c(C2CCN(S(=O)(=O)c3ccc4c(c3)OCCO4)CC2)nc2c1nnn2Cc1c(F)cccc1Cl | -21% | ? |
| O=C(Nc1cc2c3c(c1)CC(=O)N3CCC2)c1cccc(F)c1 | -14% | -21% |
| O=C(NCc1ccc(F)cc1)C(=O)NCC1CCCN1S(=O)(=O)c1ccccc1 (stereo not drawn) | -23% | -7% |
| COc1cc(/C=C2\SC(N3CCc4ccccc4C3)=NC2=O)cc(OC)c1OC | -5% | -12% |
| CC1CCN(C(=S)c2ccc(N(C)C)cc2)CC1 | -21% | -13% |
| COc1ccccc1C1/C(=C(/O)c2ccc(Cl)cc2)C(=O)C(=O)N1CCN1CCOCC1 (stereo not drawn) | -18% | · |
| O=C(Nc1ccccc1)c1nc[nH]c1C(=O)NCCNC(=O)c1[nH]cnc1C(=O)Nc1ccccc1 | -25% | -18% |

Next structures:
| Compound | VACV Venus inh | VACV mCherry inh |
| --- | --- | --- |
| Cc1ccc(O)c(CCc2ccc(O)cc2)n1 | -3% | i |
| Cc1ccc(S(=O)(=O)N2CCN(C(=O)CCn3nc(C)c(C)c3C)CC2)cc1 | -18% | -10% |
| CN(C)S(=O)(=O)c1ccc(Cl)c(C(=O)NC2CCN(Cc3ccccc3)C2)c1 (stereo not drawn) | -9% | -11% |
| COc1ccc(CCOC(=O)c2cccc(NC(C)=O)c2)cc1 | -18% | -10% |
| O=C(N/N=C/c1cc(Cl)ccc1O)c1ccc(Br)cc1 | ? | 3.2µM* |
| NC(=O)c1c(NC(=O)CCCn2cnc([N+](=O)[O-])n2)sc2c1CCCC2 | -9% | -5% |
| COc1ccc(Cc2nnc(NS(=O)(=O)Cc3ccccc3)s2)cc1 | 1% | -7% |
| COc1ccccc1NC(=O)N(C)C[C@H]1OCc2cnnn2CCCC(=O)N([C@@H](C)CO)C[C@H]1C | -7% | -15% |
| C=CCn1c(SCC(=O)NC2CC2)nnc1-c1cccs1 | -5% | -18% |
| COc1ccc(CNC(=O)CCSCc2ccccc2C)cc1 | -2% | -3% |

Part of the list above in order of heavy-atom count, highest first.
| Compound | VACV Venus inh | VACV mCherry inh |
| --- | --- | --- |
| Cc1ccc(S(=O)(=O)N2CCN(C(=O)CCn3nc(C)c(C)c3C)CC2)cc1 | -18% | -10% |
| COc1ccc(Cc2nnc(NS(=O)(=O)Cc3ccccc3)s2)cc1 | 1% | -7% |
| COc1ccc(CCOC(=O)c2cccc(NC(C)=O)c2)cc1 | -18% | -10% |
| Cc1ccc(O)c(CCc2ccc(O)cc2)n1 | -3% | i |

Further records follow:
| Compound | VACV Venus inh | VACV mCherry inh |
| --- | --- | --- |
| COc1ccc(N2CCN(C(=O)CN(C)S(=O)(=O)c3ccc4c(c3)c(=O)n(C)c(=O)n4C)CC2)cc1 | -12% | -10% |
| Cc1cc(C)c(/C=C/c2onc(C)c2S(=O)(=O)N2CCC(C(=O)N(C)Cc3ccccc3)CC2)c(C)c1 | -10%[7.34 µM] | -12%[7.34 µM] |
| COc1ccc(Nc2cc(C)c3ccccc3n2)cc1 | -11% | -26% |
| CC(C)CCn1c(O)c(N=Nc2ccccn2)c2ccccc21 | -1% | -27% |
| O=S(=O)(c1ccccc1)N1CN2CCN(C2)C1 | -1% | -14% |
| C/C(=N\NC(=O)OC(C)(C)C)c1ccccc1Br | -15% | 0% |
| COCC(=O)N(C)C1(c2nnnn2CCOC(=O)Nc2cccc3ccccc23)CCCC1 | -15% | · |
| Cc1ccc2cc(S(=O)(=O)NCCCC(=O)O)ccc2c1 | -6% | · |
| Cc1ccc(N/N=C(\C#N)C(N)=S)c(C)c1 | -6% | -2% |
| CCOC(=O)c1sc2nc(CSc3nc4ccccc4n3CC)[nH]c(=O)c2c1C | -6% | -15% |
| Cc1ccc(NC(=O)CCc2ccccc2)cc1C | -19% | i |
| O=C(COC(=O)C12CC3CC(CC(O)(C3)C1)C2)NC12CC3CC(CC(C3)C1)C2 | -19% | -13% |
| COc1ccc(CCC(=O)N/N=C(\C)c2ccc3c(c2)OCO3)cc1 | -9% | i |
| CCOC(=O)C1=C(COC(=O)CNS(=O)(=O)c2ccc(C)cc2)NC(=O)NC1C (stereo not drawn) | -11% | -5% |
| CCCC(=O)N1CCCC1(C)C(=O)Nc1ccc(-n2cccc2)cc1 (stereo not drawn) | -3% | 6% |
| COc1ccc(S(=O)(=O)NCC(c2ccco2)N2CCOCC2)cc1 (stereo not drawn) | -18%&-4% | -10%&-6% |
| COc1ccc(C=NNc2ccc([N+](=O)[O-])cn2)cc1 | -2% | -20% |
| Cc1ccccc1NC(=O)CSc1nc2ccc(NC(=O)c3ccccc3)cc2s1 | 14% | -1% |
| COc1ccc(-c2cc(C(=O)N/N=C/c3cccnc3)c3ccccc3n2)cc1 | -17% | ? |
| CC(=O)Nc1nnc(-c2c(-c3c(Cl)cccc3Cl)noc2C)o1 | -9% | i |
| COc1ccc(NC(=O)CN(C)C(=O)c2cccc(S(=O)(=O)N3CCN(C)CC3)c2)cc1 | -5% | -2% |
| CC(C)Cc1nc2n[nH]c(N)c2c2c1COC(C)(C)C2 | -7% | -16% |
| Cc1cccc(N2C(=O)CSC23C(=O)N(Cc2cccc(F)c2)c2ccccc23)c1 (stereo not drawn) | -10% | -13% |
| COc1cccc(C2Nc3ccc4ccccc4c3C3=C2C(=O)CCC3)c1O (stereo not drawn) | ? | ? |
| COc1ccc(CCNC2CC(=O)N(CCc3ccc(OC)c(OC)c3)C2=O)cc1 (stereo not drawn) | -4% | · |
| CN1CCN(C(=O)c2cn(-c3ccccc3)nc2-c2cccnc2)CC1 | -15% | · |
| COC(CNS(=O)(=O)c1cccc2nonc12)OC | -7% | 0% |
| CCCCN(CCCNC(=O)C1CCN(C(=O)c2cc3sccc3n2C)CC1)Cc1ccccc1 | ? | -22% |
| O=C(CCSCc1ccccc1Cl)NC1CCCCC1 | -11% | -10% |
| C[C@H](CO)N1C[C@H](C)[C@H](CN(C)C(=O)NC2CCCCC2)Oc2ncc(Br)cc2C1=O | -13% | -5% |
| O=c1c(-c2ccc(Cl)cc2)[n+]([O-])c2ccccc2n1OCc1nc2ccccc2[nH]1 | 5% | -18% |
| O=[N+]([O-])c1ccc(Cl)c2cccnc12 | -26% | ? |
| Cc1cccc(NS(=O)(=O)c2cccc3cccnc23)n1 | -1% | 6% |
| CCOc1ccccc1-c1nn2c(Cc3ccccc3)nnc2s1 | -26% | i |
| COc1ccccc1Cn1c(=S)[nH]c2cc(C(=O)NCCN(C)C)ccc2c1=O | -27% | i |
| O=C(Nc1ccc(Br)cc1Cl)NC1CC1 | -5% | i |
| Cc1ccc(Cn2nnnc2CN2CCC(n3nnc4cc(C(F)(F)F)ccc43)CC2)cc1 | -16% | -27% |
| COc1cccc(C(N)=O)c1 | -3% | 1% |
| CCc1cccc(OCC(=O)Nc2ccc(S(=O)(=O)Nc3ccccn3)cc2)c1 | -18% | -4% |
| O=C(CCc1ccccc1)Nc1ccncc1 | -11% | -18% |
| CC[N+](C)(C)c1ccc(/C=C/c2ccnc3ccccc23)cc1 | i | · |
| O=C(OCCN1CCN(c2ncc(C(F)(F)F)cc2Cl)CC1)c1ccc(Cl)cc1 | 0% | -9% |
| Cc1[nH]n(-c2nc(-c3ccc(Cl)cc3)cs2)c(=O)c1N=Nc1ccc(O)cc1 | -15% | -15% |
| O=C(NCC(c1ccco1)S(=O)(=O)c1cccs1)c1ccccc1 (stereo not drawn) | -16% | -12% |
| C[C@@H]1CN(Cc2ccc3c(c2)CN(C(=O)CCc2nc4ccc(F)cc4[nH]2)CCO3)C[C@H](C)O1 | 6% | -8% |
| COc1cc(C(=O)N2CCN(C3=NS(=O)(=O)c4ccccc43)CC2)cc(OC)c1OC | -5% | -14% |
| Clc1ccc(CCNc2ncnc3c2nnn3Cc2ccccc2)cc1 | -9% | i |
| O=C(c1ccc([N+](=O)[O-])s1)N1CCN(c2ccc(C(F)(F)F)cn2)CC1 | -16% | ? |
| CN1C[C@@H]2C(c3ccc(Cl)nc3)C3(c4ccc(C#N)cc4)CC2(C3)[C@H]1c1ccccc1 (stereo partly drawn) | -18% | -22% |
| CCC(CO)Oc1cc(NC(=O)c2ccccc2F)c2ncn(C(C)C)c2c1 (stereo not drawn) | -26% | ? |
